RecA intein inh = Mtb RecA intein splicing inhibitors, primary screen, biochemical, fluorescence, HTS; Protein RecA (Mycobacterium tuberculosis (strain ATCC 25618 / H37Rv)), P9WHJ3; cell-free RecA intein splicing; inhibition, %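 (about 9 µM by stock and volumes)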; hit rate 0.75% among 290,000; in the data active means inhibition above about 30%; inconclusive means no clear call, values can overlap the other calls;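 further: 0% = vehicle wells and 100% = reference inhibitor control wells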
Target sequence (P9WHJ3 whole entry, looked up): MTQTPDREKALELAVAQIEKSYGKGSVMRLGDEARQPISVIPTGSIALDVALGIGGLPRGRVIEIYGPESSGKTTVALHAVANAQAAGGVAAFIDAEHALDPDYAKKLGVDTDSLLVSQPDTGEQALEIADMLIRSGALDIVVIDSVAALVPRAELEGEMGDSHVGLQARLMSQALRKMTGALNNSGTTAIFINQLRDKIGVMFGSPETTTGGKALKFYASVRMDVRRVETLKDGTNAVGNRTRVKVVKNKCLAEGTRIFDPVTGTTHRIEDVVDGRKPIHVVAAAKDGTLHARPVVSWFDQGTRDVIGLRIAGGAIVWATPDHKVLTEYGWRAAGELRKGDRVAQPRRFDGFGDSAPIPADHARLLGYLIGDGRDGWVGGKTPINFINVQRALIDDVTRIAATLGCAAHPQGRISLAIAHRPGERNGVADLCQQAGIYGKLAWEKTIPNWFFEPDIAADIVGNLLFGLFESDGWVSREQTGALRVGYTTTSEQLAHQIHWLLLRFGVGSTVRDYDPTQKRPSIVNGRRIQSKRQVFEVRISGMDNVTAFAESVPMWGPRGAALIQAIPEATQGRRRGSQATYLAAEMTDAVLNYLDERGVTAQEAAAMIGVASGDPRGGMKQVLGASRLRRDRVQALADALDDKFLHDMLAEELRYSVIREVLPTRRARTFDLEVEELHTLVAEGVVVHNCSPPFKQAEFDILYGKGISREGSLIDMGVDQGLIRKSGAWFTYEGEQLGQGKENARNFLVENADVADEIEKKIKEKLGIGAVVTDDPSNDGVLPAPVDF
YopH PTP inh = YopH tyrosine phosphatase inhibitors, primary screen, biochemical, fluorescence Ex485/Em525 | YopH tyrosine phosphatase [Yersinia enterocolitica] | inhibition, %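 (about 10 µM by stock and volumes)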 | hit rate 0.16% among 140,000 | AID 898, 2007;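 active means inhibition of 50% or more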;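 further: controls were vehicle for no effect and minimum signal wells for full effect; inactives centre near -20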
Mtb bLac sens = beta-lactam sensitization of Mtb H37Rv, H37Rv; M. tuberculosis H37Rv growth with meropenem, percent inhibition; hits of this screen are not shown here; inhibition, % at 25 µM; hit rate 0.27% among 330,000;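 active means about 74% or more and at least 40 points above the plate without the antibiotic, then above 30% in a dose series; inconclusive means first-round hits that could not be retested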;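 further: growth measured after seven days incubation then overnight dye step; 0% = bacteria only wells and 100% = bacteria with antibiotic; twin plates without the antibiotic show which effects depend on it; some results filed as inactive read as strong as hits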
Arbovirus inh = antivirals against arbovirus infection, primary screen, cell-based, full library, 10K replicate subset; inhibition, % at 10 µM; arbovirus infection cell-based antiviral screen; hit rate 0.37% among 200,000; AID 1251, 2008;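 active means inhibition from about 30%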;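 further: bluetongue infection of BSR cells; cell survival read as ATP light after 72 h; 0% = infected wells without compound and 100% = uninfected wells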
Mtb growth = M. tuberculosis H37Rv growth inhibitors, H37Rv strain (AID 1626) | M. tuberculosis H37Rv growth inhibition; higher % means a stronger effect | inhibition, % at 10 µM, or IC50 in µM where a hit was titrated | hit rate 0.95% among 220,000;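 active means confirmed in a dose series; inconclusive means inhibition above 80% but not taken into the dose series; inactive means below 80% or under 30% at every dose of the series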;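 further: bacteria incubated seven days before Alamar blue readout; 0% = bacteria only wells and 100% = bacteria with antibiotic wells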
Arbovirus inh repeat = recorded beside Arbovirus inh, whose call it bears; inhibition, %; measured here: 10K subset replicate screen; many hits read low in the repeat;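 first of two repeat runs on a subset; 0% = infected and 100% = uninfected wells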
Starred values were filed as active, the others as inactive; ? = inconclusive; / = no result given. This is a subset; count on the stated rates, not on these rows.

SMILES | RecA intein inh | YopH PTP inh | Mtb bLac sens | Arbovirus inh | Mtb growth | others
CCn1cc(CN2CCC(n3nccc3NC(=O)c3ccccc3C)CC2)cn1 | 1.2 | / | ? | / | /
C[N+]1(CC(=O)Nc2ccccc2Cl)CCN(C(=O)c2cccs2)CC1 | -1.7 | 4 | -8 | -1 | -5%
Cc1ccc2nsnc2c1N | -6.7 | / | -17 | -1 | 0%
COc1ccc(OC)c(Nc2cc(C)nc3ccccc23)c1 | 3.5 | -39 | 6 | -3 | 3%
O=C1CC(c2cccs2)Cc2nc(NC(=O)C3CC3)ncc21 (centres undefined) | / | / | 27 | / | 7%
O=C(CNC(=O)c1ccc(Br)cc1)NCCc1nc2ccccc2[nH]1 | 0.4 | 12 | 1 | -5 | -5%
COc1ccccc1N(C(=O)CN1C(=O)c2ccccc2S1(=O)=O)C(C(=O)NCC1CCCO1)c1ccc(F)cc1 (centres undefined) | 1.1 | -10 | -7 | 5 | -11%
O=S(=O)(NCCc1cn2ccccc2n1)c1ccc(-c2ccccc2)cc1 | 0.0 | / | -3 | / | /
Cc1cccc(NC(=O)c2ccc(COc3ccccc3[N+](=O)[O-])o2)n1 | 4.1 | / | 5 | / | /
COc1ccccc1CNC(=O)COC(=O)c1ccccn1 | 0.0 | / | -5 | / | /

Brought forward from above: 5 entries; new compounds follow.
SMILES | RecA intein inh | YopH PTP inh | Mtb bLac sens | Arbovirus inh | Mtb growth | others
O=C(CNC(=O)c1ccc(Br)cc1)NCCc1nc2ccccc2[nH]1 | 0.4 | 12 | 1 | -5 | -5%
COc1ccccc1N(C(=O)CN1C(=O)c2ccccc2S1(=O)=O)C(C(=O)NCC1CCCO1)c1ccc(F)cc1 (centres undefined) | 1.1 | -10 | -7 | 5 | -11%
O=S(=O)(NCCc1cn2ccccc2n1)c1ccc(-c2ccccc2)cc1 | 0.0 | / | -3 | / | /
Cc1cccc(NC(=O)c2ccc(COc3ccccc3[N+](=O)[O-])o2)n1 | 4.1 | / | 5 | / | /
COc1ccccc1CNC(=O)COC(=O)c1ccccn1 | 0.0 | / | -5 | / | /
C#Cc1ccc([C@@H]2C=C(C(=O)N3CCN(Cc4ccccc4)CC3)O[C@H](OCCCCO)C2)cc1 | 3.0 | / | 17 | -6 | 4%
COc1cccc(NS(=O)(=O)c2csc(C(N)=O)c2)c1 | -0.9 | / | -1 | / | /
O=c1c(-c2n[nH]c(=S)n2-c2ccccc2)cccn1Cc1cccc(Cl)c1 | 1.4 | / | 8 | 6 | 5%
O=C(c1cc2c(s1)CCCC2)N1CCN(C(=O)C2CCCO2)CC1 (centres undefined) | 6.7 | -32 | -9 | 4 | -2%
CCc1ccc(Nc2ccc(C(=O)O)cc2[N+](=O)[O-])cc1 | 1.5 | / | 0 | / | /
CC(C)(C)c1cc(CN(CCO)CCO)cc(C(C)(C)C)c1O | -0.1 | -5 | 13 | 13 | 1%
O=C(Nc1nccs1)c1ccc(N2C(=O)C3CCCCC3C2=O)cc1 (centres undefined) | -2.1 | / | -10 | 6 | -5%
O=c1c2ccccc2sc2nc(C3CCCCC3)n(Cc3ccco3)c(=O)c12 | 4.3 | -15 | / | -26 | /
COc1ccccc1N(C)S(=O)(=O)c1ccc(C(=O)OCC(=O)NCc2ccco2)cc1 | 3.5 | -34 | 23 | 5 | 4%
COc1cc2c(cc1OC)/C(=C/C(=O)c1ccc(NC(C)=O)cc1)NCC2 | -2.0 | / | 5 | / | /
CNC(=O)Cn1ncc2c(C)n(Cc3ccc(C)cc3)c(C)c2c1=O | -1.7 | -38 | 0 | 15 | 0%
CCC(C)NC(=O)NC(=O)N(C1CCCCC1)S(C)(=O)=O (centres undefined) | 1.9 | 16 | -2 | 1 | -11%
CCOC(=O)C(N)CSC1CC(=O)N(c2ccc(C(=O)OC)cc2)C1=O (centres undefined) | -3.5 | -17 | 4 | 1 | -7%
Cn1nccc1C(=O)N1CCN(C23CC4CC(CC(C4)C2)C3)CC1 | 0.1 | / | -7 | / | /
NC1=NC[C@H](c2ccccc2)N1CCCCC1CCCCC1 | 8.7 | / | -2 | / | 52%
Cc1ccc(C(=O)NCC(=O)OCc2csc(-c3ccccc3)n2)cc1 | 2.8 | 4 | 3 | 14 | 8%
Cc1ccc(NC(=S)N2CCN(c3nccc(C(F)(F)F)n3)CC2)c(C)c1 | -0.4 | / | -1 | / | -8%
CCOc1ccccc1N1CCN(CC(=O)NCCc2ccc(S(N)(=O)=O)cc2)CC1 | 3.4 | / | 4 | -2 | 3%
CN(C)C(CNC(=O)c1cc(S(=O)(=O)N(C)c2ccccc2)ccc1Cl)c1cccs1 (centres undefined) | 1.2 | / | -7 | 1 | -3%
CSc1nsc(/C=C/Nc2ccc(F)cc2F)c1C#N | 17 | / | -10 | 8 | -5%
Cc1nn(Cc2ccc(Cl)cc2Cl)c(C)c1NC(=O)Cn1nc([N+](=O)[O-])c(Cl)c1C | 1.4 | -19 | 73 | -12 | -6%
COc1cccc(OCC(=O)Nc2cc(NC(=O)COc3cccc(OC)c3)cc(C(=O)O)c2)c1 | 0.5 | / | -3 | / | /
CCOC(=O)Cn1c(=NC(=O)CN2C(=O)CCC2=O)sc2cc(S(N)(=O)=O)ccc21 | -0.2 | -28 | 3 | 2 | 0%
O=C(O)CCSc1nnc(-c2ccncc2)n1-c1ccccc1 | -2.2 | -33 | -7 | 0 | -12%
Cc1ccc2c(ccn3cc4c(c(=O)n(C)c(=O)n4C)c23)c1 | / | / | 10 | -5 | 6%
O=C(Nc1ccccc1-c1ccccc1)NC1CC2CCCC(C1)N2Cc1ccc(F)cc1 (centres undefined) | 2.7 | / | 5 | -14 | -1%
O=C(Nc1nc(-c2ccc(Cl)s2)cs1)c1cccs1 | 8.6 | -25 | 73 | 4 | 9%
CC1CC(C)CN(C(=O)CCNC(=O)c2ccccc2Cl)C1 (centres undefined) | -4.3 | / | 4 | / | /
CCCn1nc2cc(C(=O)NC3CCc4ccccc43)ccc2c1OCC (centres undefined) | 3.9 | -17 | 3 | -1 | 12%
O=C(CN(C(=O)C1CSC(=O)C1)c1cccc(F)c1)NC1CCCC1 (centres undefined) | 6.6 | / | 7 | 10 | 2%
CCOc1ccc(NC(=O)c2ccc(CNc3c(N4CCCC4)c(=O)c3=O)cc2)cc1 | 1.2 | / | 51 | / | 68%
COc1ccc(C2Nc3ccccc3C(=O)N2Cc2ccco2)cc1COc1ccc(NC(C)=O)cc1 (centres undefined) | 1.6 | -25 | -6 | 9 | 4%
CC1=C(C(=O)Nc2cccnc2)C(c2cccnc2)n2ncnc2N1 (centres undefined) | -3.1 | -40 | -8 | -2 | -8%
Cn1c(=O)c2sccc2n2c(CCCC(=O)N3CCCCC3)nnc12 | -0.3 | / | -2 | / | /
O=C(Cc1ccccc1)NCCc1ccc(Cl)cc1Cl | -0.9 | -24 | 2 | -5 | 11%
Cc1cccc(NC(=O)N2CCCCCC2)c1C | -1.0 | / | -2 | / | /
CCOC(=O)c1nnn(-c2nonc2N)c1CNc1ccccc1 | -0.8 | -24 | 3 | 0 | 0%
Cc1ccc(Cl)cc1NC(=O)C1CC(=O)Nc2ncnn21 (centres undefined) | 0.8 | / | -2 | / | /
Cc1ccc(NC(=O)CN(C)c2ccc(S(=O)(=O)N3CCCC3)cn2)cc1 | 1.3 | / | 2 | 0 | -1%
COc1ccc2[nH]cc(CCn3ccc(=O)c(C)c3C)c2c1 | 7.2 | / | -9 | 4 | 4%
COc1cccc(/C=C2\N=C(c3c(-c4ccccc4)noc3C)OC2=O)c1 | -8.5 | -45 | 11 | 0 | 6%
COc1ccc(/C=N/NC(=O)c2ccoc2C)cc1OC | 0.3 | -4 | 1 | -4 | -1%
O=P(c1ccccc1)(c1ccccc1)c1ccc(O)cc1 | -0.9 | / | -2 | / | /
Cc1cc(C)n(C(=O)N(c2ccccc2)c2ccccc2)n1 | 1.1 | / | -6 | / | /
Cc1ccc(OCC(O)CNS(=O)(=O)c2ccccc2C(=O)O)cc1 (centres undefined) | -3.4 | -6 | -8 | 2 | -6%
Cc1c(/C=C/C(=O)c2ccccc2)cnn1C | -0.2 | -21 | -3 | -1 | -3%
Cc1[nH]c2ccc(C(=O)NCCCN3CCCCCC3)cc2c1C | -1.3 | / | 0 | / | /
O=C(COc1ccccc1Cl)NNC(=O)C1CCCO1 (centres undefined) | 1.7 | -25 | -11 | 1 | -3%
N#Cc1cccc(NC(=O)Cn2cnc(S(=O)(=O)N3CCCCC3)c2)c1 | -2.9 | / | -4 | / | /
CCOC(=O)CN(Cc1sccc1C)C(=O)Nc1cccc(OC)c1 | 3.0 | -33 | -1 | -2 | 2%
The list goes on.
SMILES | RecA intein inh | YopH PTP inh | Mtb bLac sens | Arbovirus inh | Mtb growth | others
O=C(CCS(=O)(=O)c1ccccc1)Nc1nc(-c2ccccn2)cs1 | 0.5 | -29 | 92 | 3 | 74% | Arbovirus inh repeat=-9
Cc1cc(C)nc(Nc2n[nH]c(COc3ccc(Cl)cc3)n2)n1 | / | -46 | 0 | 12 | -10%
Cc1cc(=O)n2[nH]c(-c3ccc(F)cc3)cc2n1 | -1.9 | -43 | -11 | 7 | -11%
O=C(OCc1cc(Cl)ccc1OC(F)F)c1cncc(Br)c1 | 0.8 | / | 82 | 9 | 76%
COCCCn1c(C)nnc1SCC(=O)NNC(=O)COc1ccc(Cl)cc1 | -3.7 | / | 8 | / | /
C#CCOCCOCCOCCNc1nc(N2CCN(C(=O)[C@H](Cc3cc4ccccc4[nH]3)n3cc([C@@H](N)C(C)CC)nn3)CC2)nc(N2CCN(C(=O)[C@H](CCCCN)n3cc([C@@H](N)CC(C)C)nn3)CC2)n1 (some centres undefined) | -2.1 | / | 96 | -6 | 72%
Cc1nnc2ccc(-c3cccc(NC(=O)c4ccc(Cl)nc4)c3)nn12 | 0.4 | / | -5 | 9 | -3%
CC1(C)C(C#N)=C(N)OC2=C1C(=O)CCC2 | -0.4 | -46 | -5 | -5 | -7% | Arbovirus inh repeat=1
Cc1ccnc(NS(=O)(=O)c2ccc(NC(=O)CCOc3ccccc3)cc2)n1 | -3.6 | / | -4 | / | /
COc1ccc(-c2cc(C(=O)N3CCOCC3)no2)cc1 | 1.4 | / | -2 | / | /

Overlap with the part before: four entries; new compounds follow.
SMILES | RecA intein inh | YopH PTP inh | Mtb bLac sens | Arbovirus inh | Mtb growth | others
Cc1nnc2ccc(-c3cccc(NC(=O)c4ccc(Cl)nc4)c3)nn12 | 0.4 | / | -5 | 9 | -3%
CC1(C)C(C#N)=C(N)OC2=C1C(=O)CCC2 | -0.4 | -46 | -5 | -5 | -7% | Arbovirus inh repeat=1
Cc1ccnc(NS(=O)(=O)c2ccc(NC(=O)CCOc3ccccc3)cc2)n1 | -3.6 | / | -4 | / | /
COc1ccc(-c2cc(C(=O)N3CCOCC3)no2)cc1 | 1.4 | / | -2 | / | /
CCc1nnc(NC(=O)c2ccc(COc3ccc(C)cc3)o2)s1 | -2.2 | -7 | 2 | 0 | -4%
Cc1ccc(C(=O)NCCC(=O)N2CCCC2)cc1 | -3.1 | / | -2 | / | /
CC1CCCN(CCOCCOc2ccc(Br)cc2Cl)C1 (centres undefined) | -0.6 | 22 | 0 | -34 | 4%
COc1ccc(CNCCC(c2ccccc2)C2CCOC(C)(C)C2)cc1 (centres undefined) | 4.4 | / | 5 | -9 | 3%

Compound activity: PubChem, several laboratories
